RE007 growth inh – less growth of the S. pombe RE007 Vpr strain; S. pombe RE007 Vpr strain, BacTiter-Glo ATP luminescence, 24 h; control for the full effect not named in the record; hit rate 0.21% among 360,000; Potency, µM (top dose mostly 92.2 µM), inactives show at the top dose activity change, negative = less growth; active = well fitted falling curve with a large enough effect; inconclusive = small, poorly fitted or top-dose-only effect; inactive = no such curve, though single readings can be large or run the other way;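 note: % is set by controls: 0 for no effect and ±100 for the full control effect; nearly all actives have a fitted effect of over 50% in size; the assay follows cell death caused by Vpr and the record does not say whether a fall means rescue or toxicity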
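Fission yeast RE007 carrying one integrated HIV-1 vpr copy, seeded at OD 0.01 in PMG+AL medium with 23 nL pinned compound. Grown 24 h at 30 degrees; viability read by BacTiter-Glo luminescence after 5 min.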
SARS PLP yeast – blocks SARS-CoV papain-like protease in a yeast assay. S. cerevisiae expressing SARS-CoV PLpro, growth rescue; control for the full effect not named in the record. hit rate 0.19% among 330,000. Potency, µM (series often up to 32.9 µM), inactives show at the highest dose activity, positive = growth rescue; note: 0% is about no effect; nearly all actives have a fitted effect of over 55% in size; growth read by luminescence after 48 h
Marburg entry inh – inhibitors of Marburg virus binding or cell entry | Marburg virus pseudotyped entry inhibition, cell reporter; control for the full effect not named in the record; about a third of the inactives were read at about 46 µM | Potency, µM (titrated, usually from 37.8 µM), for inactives: at the highest dose activity change, negative = inhibition, most hits filed as inhibitors | hit rate 1.8% among 300,000 | AID 540276; active = well fitted inhibition curve with a large enough effect; inconclusive = small, poorly fitted or top-dose-only effect, or effect the other way; inactive = flat fitted curve, though single readings scatter; tested in HEK293 cells; about a fifth of its hits are not listed in these tables; note: % is set by controls: 0 for no effect and ±100 for the full control effect; luciferase read-out
Cruzain inh noDet – blocks cruzain activity in detergent-free assay. P25779. purified cruzain, Z-FR-AMC fluorescence, no detergent. Potency, µM, inactives show max response, negative = inhibition, usual class: inhibitors. hit rate 2.3% among 200,000. AID 1476; active = well fitted curve in the direction sought with a large enough effect; inconclusive = small, poorly fitted or top-dose-only effect, or another doubt; inactive = no such curve, though single readings can be large; an effect the other way counts as inactive or inconclusive;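 note: plate controls were enzyme without inhibitor for no effect and buffer without enzyme for full effect; nearly all actives have a fitted effect of over 40% in size; top concentration of the series not given in the record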
Target sequence (P25779 123-467 limits assumed): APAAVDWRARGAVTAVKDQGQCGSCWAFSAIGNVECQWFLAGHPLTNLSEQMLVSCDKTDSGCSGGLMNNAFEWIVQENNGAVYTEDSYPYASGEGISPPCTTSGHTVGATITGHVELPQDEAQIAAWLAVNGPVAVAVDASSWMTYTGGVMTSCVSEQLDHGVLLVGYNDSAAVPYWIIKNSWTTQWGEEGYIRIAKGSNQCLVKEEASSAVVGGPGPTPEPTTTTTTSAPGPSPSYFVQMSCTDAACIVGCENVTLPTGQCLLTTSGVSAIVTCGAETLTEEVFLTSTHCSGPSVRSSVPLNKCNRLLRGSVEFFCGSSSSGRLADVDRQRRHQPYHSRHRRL
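Purified cruzain at 1.5 nM, pre-incubated 15 min with compound at room temperature in 100 mM sodium acetate pH 5.5, 5 mM DTT, 0.00005% Triton X-100. Reaction started with 2 uM Z-FR-AMC; AMC fluorescence increase over 60 s gives rate.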
NS1 function inh – influenza NS1 inhibition | hit rate 0.4% among 270,000 | Potency, µM (titrated, usually from 46.1 µM), for inactives: at the top dose activity, positive = more growth | S. cerevisiae slowed by influenza A NS1, growth recovery by OD600; note: actives are rising curves; nearly all actives have a fitted effect of over 50% in size
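Compounds were scored for reversing the slow growth caused by influenza A NS1 in S. cerevisiae, measured by optical density at 600 nm. Assay medium contained 2% galactose at pH 6.0; NS1-free yeast of the same strain were the positive control.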
Lassa entry inh – blocks Lassa virus binding to or entry into cells. hit rate 1.2% among 300,000. Lassa virus pseudotype entry inhibition, cell reporter; control for the full effect not named in the record. Potency, µM (doses to about 37.9 µM), without a hit: at the highest dose activity change, negative = inhibition, hits mostly inhibitors; active means well fitted inhibition curve with a large enough effect; inconclusive means small, poorly fitted or top-dose-only effect, or effect the other way; inactive means flat fitted curve, though single readings scatter; tested in HEK293 cells; note: % is set by controls: 0 for no effect and ±100 for the full control effect; nearly all actives have a fitted effect of over 50% in size; luciferase read-out
Cruzain inh Det – cruzain (T. cruzi) inhibition with detergent; P25779; purified cruzain, Z-FR-AMC fluorescence, 0.01% Triton; Potency, µM, without a hit: max response, negative = inhibition, usual class: inhibitors; hit rate 0.43% among 200,000; AID 1478; active = well fitted curve in the direction sought with a large enough effect; inconclusive = small, poorly fitted or top-dose-only effect, or another doubt; inactive = no such curve, though single readings can be large; an effect the other way counts as inactive or inconclusive;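 note: plate controls were neutral wells for no effect and buffer without enzyme for full effect; nearly all actives have a fitted effect of over 40% in size; top concentration of the series not given in the record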
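15 min RT preincubation of 1.5 nM cruzain with compound, then 2 uM Z-FR-AMC added; kinetic AMC fluorescence, 60 s delta. Triton X-100 0.01%, pH 5.5.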
2A StopGo – lowers the luciferase signal of an FMDV 2A StopGo reporter. human cells with a luciferase reporter of 2A StopGo recoding; control for the full effect not named in the record. Potency, µM (series often up to 57.9 µM), for the others: at the top dose signal change, negative = less light. hit rate 1.2% among 410,000. AID 1159524; active = well fitted falling curve with a large enough effect; inconclusive = small, poorly fitted or top-dose-only effect; inactive = no such curve, though single readings can be large or run the other way; tested in HEK293T cells; note: % is set by controls: 0 for no effect and ±100 for the full control effect; nearly all actives have a fitted effect of over 45% in size; luciferase light after 4 h
Active calls of the source: *; ? = inconclusive; . = no result given; & = joins results of further samples; [ ] = another dose, or the depositor's remark. Unless noted, calls come from the whole dose curve; as a rule, active means well fitted rising curve with a large enough effect; inconclusive means small, poorly fitted or top-dose-only effect; inactive means no such curve, though single readings can be large or run the other way. Potency is the fitted concentration of half-maximal effect. Hits appear at their usual frequency; overall some 4.5% were active at least once.

SMILES	RE007 growth inh	SARS PLP yeast	Marburg entry inh	Cruzain inh noDet	NS1 function inh	Lassa entry inh	Cruzain inh Det	2A StopGo
CCc1cccc(C)c1NC(=S)NCC1CCN(c2ccc(OC)cc2)C1 (centres undefined)	7%	-2%	-29%[46.1 µM]	.	.	18%	.	-12%
Cc1ccc(C(=O)NCC(=O)N2CCCN(S(=O)(=O)c3ccc(C)cc3)CC2)cc1	-3%	0%	1%	.	.	2%	.	-7%
CCOc1cc(N2CCOCC2)c(OCC)cc1NC(=O)CN1C(=O)NC(CC)(c2ccc(F)cc2)C1=O (centres undefined)	3%	.	5%	.	.	13%	.	-18%
CC1CCN(C(=O)CSc2nc3c(cnn3-c3ccccc3)c(=O)[nH]2)CC1	14%	4%	.	-24%	18%	.	-6.8%	-13%
COc1ccc(S(=O)(=O)Cc2ccc(C(=O)NCc3ccccn3)o2)cc1	-3%	-4%	-7%	4%	-7%	.	1.5%	-13%
OCCc1ccc(-c2ccc(Cl)cc2)o1	?	-5%	10%	2%	-54%	1%	-1.2%	31%[activator]
C/C(=N\NC(=O)Cn1c(C)nc2ccccc21)c1cccs1	2%	8%	-21%	-8%	2%	-8%	-1.0%	?
CCOC(=O)N1CCN(CCC(=O)Nc2ccccc2)CC1	3%	2%	20%	.	-9%	16%	.	4%
O=C(CCC(=O)c1ccccc1)Nc1cccnc1	-20%	0%	?	4%	-6%	1%	0.7%	-1%
O=C(CN1CCOCC1)Nc1c(Cl)cc(Cl)cc1Cl	14%	1%	.	.	6%	.	.	16%
CCCCC(=O)Nc1c2c(nn1-c1cccc(C)c1C)CS(=O)(=O)C2	13%	-1%	.	.	-2%	.	.	-17%
Cc1cc(C(C)(C)C)oc1C(=O)N(CC(=O)NC1CCCC1)c1c(C)cccc1C	16%	-33%	10µM*	9%	-52%	?	-8.1%	34%[activator]
COc1ccc(OCC(=O)NS(=O)(=O)c2ccccc2)cc1	11%	0%	?	.	3%	-2%	.	-5%
Cc1ccccc1S(=O)(=O)Oc1ccccc1C(=O)Oc1ccccc1	3%	1%	9%	7%	9%	19%	6.2%	-19%
Cc1cc(C(C)(C)C)oc1C(=O)N(CC(=O)NC1CCCC1)Cc1ccccc1Cl	5%	-16%	?	0%	-1%	?	-11%	.
Cc1cc(N/C=C\C(=O)c2ccc(Cl)c(Cl)c2)no1	26%	-4%	?	?	-17%	3%	1.4%	23%
FC(F)Sc1ccc(NC(=S)NCc2ccccc2)cc1	9%	-14%	?	.	-21%	?	.	50%[activator]
O=S(=O)(c1ccccc1)c1cnn(-c2ccccc2)c1-c1ccc(F)cc1	1%[3.69 µM]	-6%	?	4%	-2%	-14%	-1.1%	?
Cc1cccc(N2CCN(C(=O)c3cccc(N4CCCC4=O)c3)CC2)c1C	16%	-2%	?	.	-11%	?	.	-17%
Cc1oc(-c2ccc(F)cc2)nc1CN(Cc1ccccn1)CC1CCCO1 (centres undefined)	-13%	12%	-15%[14.2 µM]	.	1%	9%	.	-27%
Cc1cccc(NC(=O)CCN2CCN(c3ccccc3F)CC2)c1	.	.	.	-10%	.	0%[46.1 µM]	1.7%	-16%
Cc1onc(-c2ccccc2Cl)c1C(=O)NCCCN1CCOCC1	3%	3%	2%	-1%	3%	6%	4.0%	3%
CCOC(=O)CNC(=O)CNC(=O)C(Cc1ccc(N(CCCl)CCCl)cc1)NC(C)=O (centres undefined)	0%	0%	.	.	6%	.	.	29%
CCN(CC)C(=S)SCC(=O)Nc1ccc(S(N)(=O)=O)cc1	-2%	0%	?	.	.	?	.	-15%
C#CCNC(=O)C1=C[C@@H](C2CC2)C[C@@H](OCc2ccc(CO)cc2)O1	6%	-1%	.	.	0%	.	.	-7%

Quoted at random: two entries already listed, in no set order.
SMILES	RE007 growth inh	SARS PLP yeast	Marburg entry inh	Cruzain inh noDet	NS1 function inh	Lassa entry inh	Cruzain inh Det	2A StopGo
Cc1cc(N/C=C\C(=O)c2ccc(Cl)c(Cl)c2)no1	26%	-4%	?	?	-17%	3%	1.4%	23%
CCOC(=O)N1CCN(CCC(=O)Nc2ccccc2)CC1	3%	2%	20%	.	-9%	16%	.	4%

The listing continues.
SMILES	RE007 growth inh	SARS PLP yeast	Marburg entry inh	Cruzain inh noDet	NS1 function inh	Lassa entry inh	Cruzain inh Det	2A StopGo
O=C(C1=C[C@H](c2ccc3c(c2)OCO3)C[C@H](OCc2ccc(CO)cc2)O1)N1CCOCC1	-7%	0%	.	.	0%	.	.	-10%
CCCOC(=O)C1=C(C)NC2=C(C(=O)CC(C)(C)C2)C1c1cccnc1 (centres undefined)	8%	14%	25%	-4%	1%	-6%	-4.4%	0%
CCOP(=O)(OCC)C(C#N)=C1SCN(c2ccccc2)CS1	-8%	.	3%	.	.	-5%	.	1%
Cc1ccc(NC(=O)C(Cc2ccccc2)NS(=O)(=O)c2ccc3c(c2)c(=O)n(C)c(=O)n3C)c(C)c1 (centres undefined)	.	.	6%[46.1 µM]	-2%	.	2%[46.1 µM]	-0.9%	-20%
O=C(OC1CCCCC1)c1cc2ccccc2oc1=O	-20%	-1%	?	.	-6%	10%	.	14%
CC(NC(=O)c1ccco1)c1ccc(-n2ccnc2)cc1 (centres undefined)	6%	2%	4%	.	.	11%	.	-6%
Cc1ccc(C(=O)C(C)OC(=O)Cc2n[nH]c(=O)c3ccccc23)cc1 (centres undefined)	2%	3%	?	.	.	-23%	.	-12%
CN1C(=O)C(C)(C)c2cc(S(=O)(=O)N3CCCC3C(=O)NCc3ccccc3Cl)ccc21 (centres undefined)	-20%	2%	.	.	-5%	.	.	-27%
CCN(CC)c1ccc(NC(=O)CCc2c(C)nc3ncnn3c2C)c(C)c1	.	.	3%[46.1 µM]	7%	.	0%[46.1 µM]	2.8%	0%
Cc1ccc(C2CC(=O)c3cnc(N4CC(C)CC(C)C4)nc3C2)cc1 (centres undefined)	.	?	-8%	-15%	-11%	.	-1.7%	.
O=C(O)CSCC(=O)N1CCN(c2ccnc3cc(Cl)ccc23)CC1	1%	2%	.	.	-1%	.	.	-20%
COc1cccc(C(C(=O)NC(C)(C)C)N(C(=O)CCC(=O)Nc2cc(C)on2)C(C)C)c1OC (centres undefined)	-21%	4%	-15%&-15%	26%	-7%	3%	3.3%	-1%
CCC(C(=O)O/N=C(\N)c1cccc(C)c1)c1ccccc1 (centres undefined)	-7%	-25%	-1%	3%	2%	2%	-3.2%	15%
CC1CN(C(=O)COC(=O)c2ccc(N)c([N+](=O)[O-])c2)CC(C)O1 (centres undefined)	7%	-15%	3%	-8%	0%	-1%	-1.6%	11%
Cc1nnc(NC(=O)CSc2ccccc2N)s1	4%	1%	.	.	11%	.	.	31%[activator]
O=C(Nc1ccc(Cl)c(S(=O)(=O)N2CCOCC2)c1)c1cc2ccccc2oc1=O	-4%	2%	9%	.	.	24%	.	-23%
O=C(O)c1ccc(Cn2cnc3cccnc32)cc1	4%	0%	.	11%	3%	20%[46.1 µM]	-1.1%	-12%&-7%
Cn1c(=O)c2c(nc(Cl)n2CC(=O)NC2(C#N)CCCCC2)n(C)c1=O	9%	10%	20%	.	.	25%	.	-15%
COc1ccc(N2CC(C(=O)NCCS(=O)(=O)N3CCN(c4ccccc4)CC3)CC2=O)cc1 (centres undefined)	3%	2%	-5%&-5%[46.1 µM]	4%	-1%	?	-1.1%	19%&-13%
Cc1ccc(S(=O)(=O)Nc2ccccc2F)cc1C(=O)NCCCN1CCCC1=O	9%	0%	4%	1%	-2%	?	1.4%	44%[activator]
C/C(=N/NC(=O)c1nnn(-c2nonc2N)c1-c1ccccc1)c1ccncc1	7%	2%	4%[46.1 µM]	.	8%	-3%[46.1 µM]	.	?
COc1ccc(S(=O)(=O)Nc2cccc(C(C)=O)c2)cc1Br	-16%	0%	3%[46.1 µM]	.	-9%	?	.	73%[activator]
Cc1nc(C(=O)NCC(=O)c2ccc(Cl)cc2)c(C(F)(F)F)o1	2%	0%	-3%&-3%[46.1 µM]	.	5%	2%[46.1 µM]	.	-1%
CC(=O)OC1CCC2(C)C(CCC3C2CC(=NO)C2(C)C(C(C)OC(C)=O)CCC32)C1 (centres undefined)	43%	.	-12%	.	.	-23%	.	-25%
Cc1cccc2c(N)c3c(nc12)CCCC3 (tested in a mixture with another compound)	31%	1%	.	.	6%	.	.	-18%

One compound at a time, from the list above. Screens in order: RE007 growth inh, SARS PLP yeast, Marburg entry inh, Cruzain inh noDet, NS1 function inh, Lassa entry inh, Cruzain inh Det, 2A StopGo
O=C(Nc1ccc(Cl)c(S(=O)(=O)N2CCOCC2)c1)c1cc2ccccc2oc1=O in the list: -4%, 2%, 9%, ., ., 24%, ., -23%
Cc1ccc(C(=O)C(C)OC(=O)Cc2n[nH]c(=O)c3ccccc23)cc1 (centres undefined) in the list: 2%, 3%, ?, ., ., -23%, ., -12%

The list continues.
SMILES	RE007 growth inh	SARS PLP yeast	Marburg entry inh	Cruzain inh noDet	NS1 function inh	Lassa entry inh	Cruzain inh Det	2A StopGo
CCN(C(=O)CSc1cc(C)c2ccccc2n1)c1c(N)n(Cc2ccccc2)c(=O)[nH]c1=O	-11%	-2%	3%	.	-5%	-1%	.	-26%
CCN(CC)CC#CCC(O)(c1ccccc1)C1CCCCC1 (centres undefined)	-1%	-1%	-26%[46.1 µM]	.	1%	-28%	.	?
N#Cc1c[nH]n2c(NC3CCCC3)c(-c3ccc(Br)cc3)nc12	.	.	?	?	.	-27%[46.1 µM]	-4.6%	-14%
O=C(COc1ccc2c(c1)OCO2)Nc1nncs1	5%	0%	-4%[46.1 µM]	.	-2%	7%[46.1 µM]	.	0%
CCOc1ccc(NC(=O)c2c(NC(=O)c3cccs3)sc3c2CCC(C(C)(C)C)C3)cc1 (centres undefined)	.	.	-1%[46.1 µM]	?	.	22%[46.1 µM]	-1.4%	14%
N#CC(Nc1ccccc1)c1ccccc1OCc1ccccc1 (centres undefined)	-23%	1%	?	2%	-92%	-6%	-3.2%	41%[activator]
Cc1nc(NC(=O)c2ccccc2[N+](=O)[O-])sc1C(=O)N(C)C	6%	0%	-1%	-3%	?	9%	5.3%	-12%

Compound activity (PubChem)
